StopGo reporter: High Throughput Screening for Foot and Mouth Disease Virus Antivirals; human cells with a luciferase reporter of 2A StopGo recoding; control for the full effect not named in the record; hit rate 1.2% among 410,000; Potency, µM (series often up to 57.9 µM), for the others: at the highest dose signal change, negative = less light; active = well fitted falling curve with a large enough effect; inconclusive = small, poorly fitted or top-dose-only effect; inactive = no such curve, though single readings can be large or run the other way; tested in HEK293T cells; also: % is scaled to controls: 0 for no effect and ±100 for the full control effect; nearly all actives have a fitted effect of over 45% in size; luciferase light after 4 h
LASV entry inh: qHTS for Inhibitors of binding or entry into cells for Lassa Virus; Lassa virus pseudotype entry inhibition, cell reporter; control for the full effect not named in the record; Potency, µM (highest dose often 37.9 µM), without a hit: at the highest dose activity change, negative = inhibition, actives largely listed as inhibitors; hit rate 1.2% among 300,000; active means well fitted inhibition curve with a large enough effect; inconclusive means small, poorly fitted or top-dose-only effect, or effect the other way; inactive means flat fitted curve, though single readings scatter; tested in HEK293 cells; also: % is scaled to controls: 0 for no effect and ±100 for the full control effect; nearly all actives have a fitted effect of over 50% in size; luciferase read-out
RE007 growth inh: qHTS Assay for Inhibitors of the HIV-1 protein Vpr. S. pombe RE007 Vpr strain, BacTiter-Glo ATP luminescence, 24 h; control for the full effect not named in the record. Potency, µM (doses to about 92.2 µM), for the others: at the top dose activity change, negative = less growth. hit rate 0.21% among 360,000; active = well fitted falling curve with a large enough effect; inconclusive = small, poorly fitted or top-dose-only effect; inactive = no such curve, though single readings can be large or run the other way;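 also: % is scaled to controls: 0 for no effect and ±100 for the full control effect; nearly all actives have a fitted effect of over 50% in size; the assay follows cell death caused by Vpr and the record does not say whether a fall means rescue or toxicity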
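Fission yeast RE007 carrying one integrated HIV-1 vpr copy, seeded at OD 0.01 in PMG+AL medium with 23 nL pinned compound. Grown 24 h at 30 degrees; viability read by BacTiter-Glo luminescence after 5 min.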
Cruzain noTriton: qHTS Assay for Promiscuous and Specific Inhibitors of Cruzain (without detergent); Cruzipain (Trypanosoma cruzi), P25779; AID 1476, 2009; purified cruzain, Z-FR-AMC fluorescence, no detergent; hit rate 2.3% among 200,000; Potency, µM, inactives show max response, negative = inhibition, hits mostly inhibitors; active = well fitted curve in the direction sought with a large enough effect; inconclusive = small, poorly fitted or top-dose-only effect, or another doubt; inactive = no such curve, though single readings can be large; an effect the other way counts as inactive or inconclusive;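 also: plate controls were enzyme without inhibitor for no effect and buffer without enzyme for full effect; nearly all actives have a fitted effect of over 40% in size; top concentration of the series not given in the record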
Target sequence (P25779 123-467 limits assumed): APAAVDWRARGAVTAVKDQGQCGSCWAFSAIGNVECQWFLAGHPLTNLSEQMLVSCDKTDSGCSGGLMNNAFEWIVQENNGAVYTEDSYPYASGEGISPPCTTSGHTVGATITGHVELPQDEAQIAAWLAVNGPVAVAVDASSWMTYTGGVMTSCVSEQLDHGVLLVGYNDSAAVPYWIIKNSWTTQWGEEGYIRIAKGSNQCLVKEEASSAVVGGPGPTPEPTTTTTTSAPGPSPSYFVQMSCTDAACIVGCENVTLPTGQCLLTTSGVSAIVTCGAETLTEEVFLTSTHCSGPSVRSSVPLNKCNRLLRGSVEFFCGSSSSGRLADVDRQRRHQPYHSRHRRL
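Detergent-free condition (0.00005% Triton X-100) in acetate buffer pH 5.5 with DTT. 1.5 nM enzyme and compound were pre-mixed 15 min, then 2 uM Z-FR-AMC substrate added; reaction progress from fluorescence change between first and third reads (60 s).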
SARS PLP yeast: qHTS of Yeast-based Assay for SARS-CoV PLP; S. cerevisiae expressing SARS-CoV PLpro, growth rescue; control for the full effect not named in the record; hit rate 0.19% among 330,000; Potency, µM (doses to about 32.9 µM), for inactives: top-dose activity, positive = growth rescue; also: 0% is about no effect; nearly all actives have a fitted effect of over 55% in size; growth read by luminescence after 48 h
Cruzain inh Det: qHTS Assay for Promiscuous and Specific Inhibitors of Cruzain (with detergent); Cruzipain (Trypanosoma cruzi), P25779; purified cruzain, Z-FR-AMC fluorescence, 0.01% Triton; Potency, µM, for inactives: max response, negative = inhibition, actives largely listed as inhibitors; hit rate 0.43% among 200,000; AID 1478, 2009; active = well fitted curve in the direction sought with a large enough effect; inconclusive = small, poorly fitted or top-dose-only effect, or another doubt; inactive = no such curve, though single readings can be large; an effect the other way counts as inactive or inconclusive;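 also: plate controls were neutral wells for no effect and buffer without enzyme for full effect; nearly all actives have a fitted effect of over 40% in size; top concentration of the series not given in the record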
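Purified cruzain (1.5 nM final) was preincubated with compounds for 15 min at room temperature in 100 mM sodium acetate pH 5.5, 5 mM DTT, 0.01% Triton X-100. Reaction started with 2 uM Z-FR-AMC; AMC fluorescence change over 60 s gave activity.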
Marburg entry inh: qHTS for inhibitors of binding or entry into cells for Marburg Virus; AID 540276, 2011; Marburg virus pseudotyped entry inhibition, cell reporter; control for the full effect not named in the record; about a third of the inactives were read at about 46 µM; hit rate 1.8% among 300,000; Potency, µM (doses to about 37.8 µM), for inactives: at the highest dose activity change, negative = inhibition, usual class: inhibitors; active = well fitted inhibition curve with a large enough effect; inconclusive = small, poorly fitted or top-dose-only effect, or effect the other way; inactive = flat fitted curve, though single readings scatter; tested in HEK293 cells; about a fifth of its hits are not listed in these tables; also: % is scaled to controls: 0 for no effect and ±100 for the full control effect; luciferase read-out
NS1 inh: qHTS Assay for Inhibitors of Influenza NS1 Protein Function | Potency, µM (doses to about 46.1 µM), for inactives: top-dose activity, positive = more growth | hit rate 0.4% among 270,000 | S. cerevisiae slowed by influenza A NS1, growth recovery by OD600; also: actives are rising curves; nearly all actives have a fitted effect of over 50% in size
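Growth recovery, yeast-based: influenza A NS1 expressed in S. cerevisiae causes slow growth, and suppressors are detected by OD600. The parent strain without NS1 is used as positive control.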
* = called active by the depositor; ? = inconclusive; . = not tested or not shown; & = joins results of further samples; [ ] = another dose, or the depositor's remark. Unless noted, calls follow the shape of the dose curve; as a rule, active means well fitted rising curve with a large enough effect; inconclusive means small, poorly fitted or top-dose-only effect; inactive means no such curve, though single readings can be large or run the other way. Potency is read from the fitted curve at half-maximal effect.

Second line of a record: StopGo reporter | Cruzain inh Det | Marburg entry inh | NS1 inh | RE007 growth inh | SARS PLP yeast | Cruzain noTriton | LASV entry inh
- CCOC(=O)N1CCC(NC(=O)CC2C(=O)NCCN2Cc2ccc(C)cc2)CC1 (centres undefined)
 : -5% | . | -16% | 29% | 6% | 52% | . | -9%
- CN(C)c1ccc(C(=O)NCc2ccc3c(c2)CCN3C(=O)c2ccc(Cl)cc2)cc1
 : 1% | 5.6% | . | . | . | . | -2% | -27%[46.1 µM]
- Cc1c(OCC(=O)NCc2ccncc2)ccc2c3c(c(=O)oc12)CCC3
 : -9% | . | . | -14% | -7% | ? | . | .
- O=C(Cc1ccccc1)NCCc1csc2nc(-c3ccc(Cl)cc3)nn12
 : ? | 0.7% | . | . | . | . | -6% | -6%[46.1 µM]
- CCOC(=O)CSc1ccc2nnc(-c3ccncc3)n2n1
 : 0% | -4.3% | . | -54% | 0% | -8% | -9% | .
- O=C(O)c1cc(-c2ccccc2)n(-c2ccc(Cl)cc2Cl)n1
 : -11% | . | -2% | 14% | 25% | 1% | . | 18%
- O=C(Cc1ccccc1)Nc1c(C(=O)N2CCN(c3ccc(F)cc3)CC2)oc2ccccc12
 : 60%[activator] | -6.5% | . | . | . | . | 2% | -24%[46.1 µM]
- Cc1ccc(OC2=NS(=O)(=O)c3ccccc32)cc1
 : 8% | 4.2% | ? | 11% | 2%[3.69 µM] | ? | 6% | ?
- COc1cc(C)c(C(=O)Oc2cc(C)c(C(=O)O)c(O)c2)c(O)c1
 : 34%[activator] | . | . | -37% | 11% | -2% | . | .
- C=CCC1(C(=O)NCCO)CCN(C(=O)OC(C)(C)C)CC1
 : -11% | . | . | -3% | 15% | -2% | . | .
- COc1ccc(CNC(=O)c2ccc3c(c2)N=C(C)c2c(C)ccc(C)c2S3)cc1
 : ? | -4.4% | ? | . | . | . | ? | ?
- O=C(Nc1nc2c(Cl)cccc2s1)c1ccc([N+](=O)[O-])o1
 : ? | . | ? | -14% | -15% | -14% | . | 3%
- O=C(Nc1nnc(S(=O)(=O)N2CCCCC2)s1)c1ccc(F)cc1
 : 8% | 3.3% | . | . | . | . | 6% | 2%[46.1 µM]
- CC(NC(=O)c1cc(-c2ccncc2)nc2ccc(Cl)cc12)C1CCCO1 (centres undefined)
 : 12% | . | -28% | -54% | 5% | 1% | . | 9%
- NC(=O)CC(NC(=O)c1cccc(Br)c1)c1ccc(NC2CCCCCCC2)c([N+](=O)[O-])c1 (centres undefined)
 : -21% | . | . | 23% | 2% | 0% | . | .
- COC(=O)c1ccccc1NC(=O)Cn1c(=O)n(CCC(=O)NCc2ccc3c(c2)OCO3)c(=O)c2ccccc21
 : 16% | -1.8% | 0%[46.1 µM] | . | . | . | -4% | 18%[46.1 µM]
- O=C(CC1SC(=O)N(Cc2ccccc2)C1=O)Nc1nccs1 (centres undefined)
 : -14% | -1.3% | ? | 1% | -1% | 5% | -2% | -8%
- CCOC(=O)CN1C(=O)C(O)(CC(=O)c2ccc3c(c2)CCCC3)c2ccccc21 (centres undefined)
 : 1% | -5.4% | -3% | -28% | 26% | -19% | 22% | 21%
- O=C(COC(=O)CC1Sc2ccccc2NC1=O)NCc1ccccc1 (centres undefined)
 : 2% | . | ? | . | -15% | 7% | . | -12%[46.1 µM]
- O=C(Nc1c2c(nc3ccccc13)CCCC2)c1ccccc1F
 : -12% | -1.4% | -9% | 9% | -3% | 5% | 15% | -29%
- COc1ccccc1OCCC(=O)O
 : -9% | . | 1%[46.1 µM] | 6% | -2% | 1% | . | 25%[46.1 µM]
- CCOC(=O)C1CCCN(S(=O)(=O)c2ccc(NC(C)=O)cc2)C1 (centres undefined)
 : -8% | . | . | 3% | 3% | 9% | . | .
- CCOC(=O)/C(C#N)=C/c1ccc(OCC(=O)Nc2ccc(C)c(C)c2)c(OC)c1
 : 13% | -5.8% | -3% | -5% | 5% | 5% | 5% | 24%
- CCc1ccc(NC(=O)CCNS(=O)(=O)c2cccs2)cc1
 : 58%[activator] | . | 7%[46.1 µM] | 8% | 0% | 1% | . | .
- CC(=O)Cn1cnc2c(cnn2-c2ccc(C)c(C)c2)c1=O
 : 14% | . | . | 1% | -12% | -5% | . | .
- Cc1cc(C)nc(NC(=O)c2cnc3sccn3c2=O)n1
 : -17% | -0.9% | . | -33% | 11% | -6% | -2% | .
- C=CCSC1=NC(=O)/C(=C/c2cccs2)S1
 : ? | -8.1% | -5% | -52% | ? | -73% | -1% | 10%
- O=C(c1ccco1)N1CCc2ccccc21
 : 61%[activator] | . | 8% | . | 14% | -2% | . | 29%
- O=C(NN1C(=O)C2C3c4ccccc4C(c4ccccc43)C2C1=O)c1ccc(Cl)cc1 (centres undefined)
 : -24% | -3.0% | -9% | 13% | -14% | 12% | -7% | 0%
- CS(=O)(=O)c1cccc(S(=O)(=O)N2CCCCCC2)c1
 : -17% | . | . | 3% | 10% | 4% | . | .

Gathered by group: the compounds so far with an aryl methoxy group (4)
Second line of a record: StopGo reporter | Cruzain inh Det | Marburg entry inh | NS1 inh | RE007 growth inh | SARS PLP yeast | Cruzain noTriton | LASV entry inh
- COc1cc(C)c(C(=O)Oc2cc(C)c(C(=O)O)c(O)c2)c(O)c1
 : 34%[activator] | . | . | -37% | 11% | -2% | . | .
- COc1ccc(CNC(=O)c2ccc3c(c2)N=C(C)c2c(C)ccc(C)c2S3)cc1
 : ? | -4.4% | ? | . | . | . | ? | ?
- COc1ccccc1OCCC(=O)O
 : -9% | . | 1%[46.1 µM] | 6% | -2% | 1% | . | 25%[46.1 µM]
- CCOC(=O)/C(C#N)=C/c1ccc(OCC(=O)Nc2ccc(C)c(C)c2)c(OC)c1
 : 13% | -5.8% | -3% | -5% | 5% | 5% | 5% | 24%

Further entries:
Second line of a record: StopGo reporter | Cruzain inh Det | Marburg entry inh | NS1 inh | RE007 growth inh | SARS PLP yeast | Cruzain noTriton | LASV entry inh
- CCCC(C)NNC(=O)c1cc2ccccc2[nH]1 (centres undefined)
 : 40%[activator] | 3.0% | 11% | 5% | -3% | 0% | -28% | 29%
- CCC1CN(C(=O)NCc2ccccc2)c2cc(C)ccc2O1 (centres undefined)
 : -3%&-21% | -1.4% | -26% | -7% | 1% | -2% | ? | ?
- CCC1CCCCN1C(=O)CCCc1ccccc1 (centres undefined)
 : 65%[activator] | . | . | 11% | 8% | 4% | . | .
- COc1cccc(C(=O)Cn2c(Br)nc3c2c(=O)n(C)c(=O)n3C)c1
 : -13% | -26% | 7% | 5% | -2% | 8% | 8% | -5%
- Cc1ccc2c(c1)c(CC(=O)Nc1ccc(C)c(F)c1)c(C(=O)O)n2C
 : -16%&-19% | -14%&-13% | ? | 1% | -15% | 25% | -6%&10% | ?
- Cc1ccc(CN2CCN(Cc3ccc(O)cc3)CC2CCO)o1 (centres undefined)
 : -17% | . | 13%[46.1 µM] | -2% | -12% | -1% | . | -2%[46.1 µM]
- COc1c(C(=O)NNC(=O)c2ccccc2Cl)csc1Br
 : 58%[activator] | . | ? | -1% | 3% | 0% | . | 15%
- COC(=O)c1cc(S(=O)(=O)NCC2CCN(Cc3ccc(C)cc3)CC2)cn1C
 : -19%&-15% | 1.2% | . | 4% | 0% | 0% | -1% | -4%[46.1 µM]
- CN(C1CCCCC1)S(=O)(=O)c1ccc(-n2cnnn2)cc1
 : 0% | 4.2% | -1% | -26% | 19%[3.69 µM] | -6% | 5% | 2%
- FCCCOc1ccc(-c2ccnc(-c3ccccc3)n2)cc1
 : 31%[activator] | -2.4% | -15% | -3% | -17% | -14% | 7% | 12%
- C=CCOc1nc(N(C)C)nc(N(C)C)n1
 : -13% | 4.4% | ? | -11% | -11% | 2% | -6% | -4%
- C/C(=N\NC(=O)CN(c1ccccc1)S(C)(=O)=O)c1ccccc1O
 : 2% | . | -12%[46.1 µM] | . | 12% | 5% | . | ?
- COCc1cc(/C=N\NC(=O)Cc2ccc(Cl)cc2)ccc1OC
 : -9% | 0.2% | 0% | 4% | -3% | 16% | -13% | ?
- O=C(CCS(=O)(=O)c1ccccc1)N1CCN(c2ccc(F)cc2)CC1
 : 6% | . | ? | 7% | -5% | 2% | . | 2%[46.1 µM]
- CCn1c(SCC(=O)N2CCCCCC2)nc2c(c1=O)SCC2
 : -13% | . | 15% | 18% | 9% | 23% | . | -10%
- COc1cccc(/C=N/N2CCN(c3ccccc3OC)CC2)c1
 : 22% | -2.8% | 5% | 6% | -25% | -4% | -1% | 3%
- O=C(N/N=C1\CCCc2ccccc21)c1ccccc1Cl
 : 26% | . | 18%[46.1 µM] | -3% | -3% | 1% | . | -1%[46.1 µM]
- CSc1cc(-c2ccncc2)nc(-c2ccc(Cl)cc2)c1
 : -6% | . | 4.5µM* | -1% | 0% | -4% | . | 14%
- CC(C)N(Cc1ccccc1)S(=O)(=O)c1cccs1
 : -8% | . | . | -22% | -5% | -1% | . | .
- Cc1ccc(C(=O)O/N=C/c2ccc(N(C)C)cc2)cc1
 : 49%[activator] | . | 4% | 4% | 11% | 1% | . | 16%
- CCCCN(C(=O)CNC(=O)c1ccco1)C(C(=O)NC1CCCCC1)c1ccc(OC)cc1OC (centres undefined)
 : -1% | -2.2% | ? | -7% | -3% | 14% | ? | -2%
- Cc1ccc(C(=O)Nc2nc(-c3cc(Cl)sc3Cl)cs2)cc1
 : ? | 4.8% | ? | 1% | -6% | 4% | ? | -26%
- Cc1oc(-c2ccc(Cl)cc2)cc1C(=O)NC1CCN(Cc2ccccc2)CC1
 : ? | . | ? | 1% | -16% | 0% | . | ?
- C/C(=N\NC(=O)CC#N)c1ccc(Oc2ccccc2)cc1
 : -16% | . | . | 12% | -2% | -3% | . | .

High-throughput results deposited in PubChem by National Center for Advancing Translational Sciences (NCATS).
